PK Bst: modulators of Bacillus stearothermophilus pyruvate kinase. partly purified Bacillus stearothermophilus pyruvate kinase, luminescence ATP production; ribose 5-phosphate activator present at AC10. AID 361. Potency, µM. actives 1.2% (n = 51,000); in the data active means potency below about 11 µM; inconclusive means mostly about 12 µM to 25 µM; inactive means weaker than that;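 the screen sought inhibitors and activators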;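 further: potency means the concentration at half of the fitted maximal effect; scaled between full activation by ribose 5 phosphate and full inhibition by luteolin; about four in five hits inhibit and the cells do not say which; series up to 57 µM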
YjeE inh: displaces an ADP probe from E. coli YjeE (TsaE); P0AF67; purified YjeE, fluorescence polarisation of a bound ADP probe; Potency, µM; actives 0.05% (n = 71,000); AID 605; active = well fitted falling curve; inconclusive = weaker or top-dose-only fall, or a rising curve; inactive = flat or poorly fitted curve;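 further: top concentration of the series not given in the record; excess ADP was the control for the full effect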
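Purified YjeE (10 uM) with BODIPY Texas Red-labeled ADP probe (2 uM); compounds pin-transferred, 15 min at room temperature. Binding inhibition read as decreased fluorescence polarization; ADP titration as control.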
The depositor's hits bear a star; i = inactive; ? = inconclusive; . = not tested or not shown. The list is partial; the hit share may differ from the screen's.

no.	SMILES	YjeE inh	PK Bst
1	COc1ccc(-c2nc3cnc(Nc4cccc(OC)c4)nc3n(C3CC3)c2=O)cc1	i	.
2	CCn1c(COc2cccc3ccccc23)nnc1SCC(N)=O	i	>57
3	CC(=O)NC(Cc1c[nH]c2ccccc12)C(=O)OCC(=O)Nc1cc(C)on1 (stereo not drawn)	i	>57
4	Clc1ccc(Cl)c(-c2ccc(/C=N/c3ncn[nH]3)o2)c1	.	>11.4
5	CC(C)CN(C(=O)COC(=O)Cn1cnc2ccccc2c1=O)C1CCS(=O)(=O)C1 (stereo not drawn)	i	>57
6	COc1cccc(C2N(c3cccc(Cl)c3)C(=O)C3CCCN32)c1 (stereo not drawn)	i	.
7	CC(=O)N1CCN(c2ccc(NCc3cccs3)cc2)CC1	i	>57
8	Cc1c(C(=O)NCc2cccnc2)oc2ccccc12	i	.
9	Cn1c(=O)c2c(nc(CN3CCC(Cc4ccccc4)CC3)n2CCN2CCOCC2)n(C)c1=O	i	>57
10	O=C(O)CCCCCNS(=O)(=O)c1ccc(Cl)cc1	i	.
11	O=C(c1csnn1)N1CCC2(CC1)CN(c1ccccn1)C2	i	.
12	CCCC(=O)c1cc(F)c(N2CCOCC2)cc1C	i	>57
13	CCOC(=O)Nc1sc2c(c1C#N)CCC(C)C2 (stereo not drawn)	i	.
14	[O-][n+]1onc2c1CCc1c-2nn(-c2ccccc2Cl)[n+]1[O-]	i	>57
15	CCOc1nc(S(=O)(=O)c2ccc(C)cc2)c(Cl)s1	i	>57
16	CC(=O)N1CCCc2cc(S(=O)(=O)NC(C(=O)NCc3ccc(C)cc3)C(C)C)ccc21 (stereo not drawn)	i	>57
17	COc1cc(S(=O)(=O)NC2CCCCC2)ccc1Cl	i	>57
18	CCn1c(C)nc2c(=O)oc3ccccc3c21	i	.
19	CCN(CC)CCNC(=O)Cn1nc(-c2ccccc2)c2ccccc2c1=O	i	.
20	CCc1nnc(NC(=O)c2cnccn2)s1	i	>57
21	COc1cc2c(C(=O)NCCCN3CC(C)CC(C)C3)cn(CC(C)C)c(=O)c2cc1OC (stereo not drawn)	i	>57
22	Cc1noc(C)c1COc1cccc(C(=O)OCCOc2ccc(F)cc2)c1	i	>57
23	O=C(Nc1cccc2cccnc12)c1ccc(Br)o1	i	>57
24	CC(=O)Nc1nc(CCC(C)C)cc2c1c(=O)oc1ccccc12	i	>57
25	Cc1cccc(NC(=O)CCN2CCOCC2)c1	i	.
26	N#Cc1c(N)n[nH]c1-c1cc2c([nH]1)CCCC2	i	6.28*
27	O=C(C1CCCN(S(=O)(=O)c2cccc3nsnc23)C1)N1CC=C(c2ccccc2)CC1 (stereo not drawn)	i	>57
28	CN(C(=O)CSc1nnc(NC2CCCCC2)s1)C1CCS(=O)(=O)C1 (stereo not drawn)	i	>57
29	CCN(CC)CCCNC(=O)c1cc(-c2ccc(Cl)c(Cl)c2)on1	i	.
30	O=C(CSc1ncc(-c2ccc(F)cc2)n1Cc1ccco1)Nc1nccs1	i	>57
31	Cc1cc(Cl)cc(C)c1OCCCCN1CCOCC1	i	>57
32	CCN(CCCNC(=O)CNC(=O)Cn1cnc2ccccc2c1=O)c1cccc(C)c1	i	>57
33	CCN(CC)c1ccc(NC(=O)CN2CCN(c3ccc(F)cc3)CC2)cc1	i	>57
34	CC(C)OC(=O)CSc1ncnc2c1cnn2-c1ccccc1	i	.
35	CCCCCOC(=O)C1=C(C)NC(=O)NC1c1ccccc1OCC (stereo not drawn)	i	.
36	COc1ccc(-c2cc3nc(-c4ccccc4)cc(N4CCC5(CC4)OCCO5)n3n2)cc1	i	i
37	CCOC(=O)C1CCN(C(=O)CSc2ccccc2)CC1	i	>57
38	CC(C)NC(=O)NC(=O)COC(=O)Cc1ccsc1	i	>57
39	Cc1cccc(N2C(=O)CC(N3CCN(Cc4ccc(Cl)cc4)CC3)C2=O)c1 (stereo not drawn)	.	>25.6
40	O=P(c1ccc2c(c1)OCCO2)(N1CCOCC1)N1CCOCC1	i	>57
41	CN(CC(=O)NCc1ccccn1)S(=O)(=O)c1ccc(Cl)cc1	i	.
42	Cc1cc2cc(CN(CCCO)S(=O)(=O)c3cccc4nsnc34)c(=O)[nH]c2cc1C	i	>57
43	O=C(NCc1cccnc1)c1cccc2c1C(=O)N(C1CCCCC1)C2	i	>57
44	CC1=C(C)C(=O)C(CCCCC#CCCCC#CCO)=C(C)C1=O	i	>25.6
45	O=S(=O)(NC1CCN(Cc2ccccc2)CC1)c1cccc(S(=O)(=O)N2CCOCC2)c1	i	>57
46	O=C(CN(Cc1ccco1)C(=O)CNS(=O)(=O)c1ccccc1)NCc1ccccc1	i	>57
47	COc1ccccc1-n1c(SCC(=O)NC(C)(C)C)nc(O)cc1=O	i	>57
48	CCOC(=O)N1CCN(S(=O)(=O)c2cc(Br)cc3c2N(C(C)=O)C(C)C3)CC1 (stereo not drawn)	i	>57
49	CCOC(=O)c1nnc2cc(-c3ccccc3)nn2c1C	i	.
50	COc1nc(N(c2ccccc2)c2ccccc2)nc(-n2ccnc2)n1	i	>57

Continuation:
no.	SMILES	YjeE inh	PK Bst
51	C=CCn1c(SCC2=C(C(=O)OCC)C(C)NC(=O)N2)nnc1C1CCCCC1 (stereo not drawn)	i	>57
52	O=C1CC(c2ccco2)CC2=C1C=Nc1ccccc1N2 (stereo not drawn)	i	>57
53	COc1ccc(C2=NO[C@@H]3C(=O)N(c4cccc(C)c4C)C(=O)[C@H]23)cc1OC	i	>57
54	O=C(CCS(=O)(=O)c1ccc(Cl)cc1)OCC(=O)N1CCCCC1	i	.
55	COCCn1c(C)cc(C(=O)COC(=O)c2n[nH]c3ccccc23)c1C	i	1.4*
56	O=C(N1CCCC1)N1CCN(c2ncnc3c(-c4ccc(Cl)cc4)nsc23)CC1	i	>57
57	O=C(O)c1ccn(Cn2cnc3ccccc32)n1	i	>57
58	CC(C)Cn1c(N)c(C(=O)NCCN2CCOCC2)c2nc3ccccc3nc21	i	>57
59	COCC(=O)N1CCC2(CCCN(c3ncccn3)C2)CC1	i	.
60	CC(C)(C)n1ncc2c(=O)n(CC(=O)Nc3ccc(Cl)cc3)cnc21	i	>57
61	Cc1cc(C(F)(F)F)nc(NCc2cccnc2)n1	i	>57
62	COCCn1c(=O)c(-c2cn(C)c3ccccc23)nc2cnc(OCc3ccccc3)nc21	i	.
63	COCCN(CC(=O)NCC1CCCO1)C(=O)CCC(=O)Nc1cc(C)on1 (stereo not drawn)	i	>57
64	N#CCCn1c(=O)c(-c2cccs2)nc2cnc(Nc3ccccc3)nc21	i	.
65	COc1cccc(Cn2c(=O)c(-c3ccccc3)nc3cnc(N(C)C)nc32)c1	i	.
66	CCCN1C(=O)C(O)(C/C(C)=N/O)c2ccccc21 (stereo not drawn)	i	>57
67	Cc1ccc(S(=O)(=O)c2c(C)nn(C(C)(C)C)c2OC(=O)c2ccc(Br)o2)cc1	i	>57
68	COc1ccc(OC)c(S(=O)(=O)Nc2ccc(O)c(Sc3ncn[nH]3)c2)c1	i	>57
69	CCOC(=O)c1cnc(SCC(=O)NCc2cccs2)nc1N	i	>57
70	Cc1ccc(SCc2[nH]nc3c2C2(CCSCC2)C(C#N)=C(N)O3)cc1	i	>57

Single records (already shown). Order of values: YjeE inh | PK Bst
Entry for CC(C)Cn1c(N)c(C(=O)NCCN2CCOCC2)c2nc3ccccc3nc21 = i | >57
Entry for Cc1noc(C)c1COc1cccc(C(=O)OCCOc2ccc(F)cc2)c1 = i | >57

Going on with the list.
no.	SMILES	YjeE inh	PK Bst
71	O=C(c1ccccc1)N1CCCC(C(=O)N2CCCCCC2)C1 (stereo not drawn)	i	>57
72	Clc1ccc2[nH]c3c(NCC4CCCO4)ncnc3c2c1 (stereo not drawn)	i	i
73	COc1cccc(-c2nn(C)c3sc(C(=O)N4CCN(c5ccccc5)CC4)cc23)c1	i	>57
74	CN(C)CCCO[C@H]1[C@@H]2OC(C)(C)O[C@@H]2O[C@@H]1[C@H](O)CO	i	.
75	COCCn1c(SCC(=O)N2CCC(C)CC2)nc2ccccc2c1=O	i	>57
76	COc1ccc(/C(O)=C2\C(=O)C(=O)N(c3cc(C)on3)C2c2ccccc2OC)cc1 (stereo not drawn)	.	>25.6
77	CNc1ncnc2c1ncn2[C@H]1C[C@H](OP(=O)(O)O)[C@H](COP(=O)(O)O)O1	i	.
78	CCC(C)(C)NC(=O)C(c1cccc(OC)c1)N(C(=O)c1ccn[nH]1)c1cccc(OC)c1 (stereo not drawn)	i	>57
79	CC(=O)NC(CCS(C)(=O)=O)C(=O)Nc1ccc2c(c1)OCO2 (stereo not drawn)	i	.
80	CCCCN(CCCC)CCCNC(=O)CC1Oc2ccc(C)cc2NC1=O (stereo not drawn)	i	>57
81	Cc1ccc(N2C(=O)C3C(C2=O)C(C(=O)c2ccc(Cl)cc2)N2CCCC32)cc1 (stereo not drawn)	i	>57
82	COc1ccc(-c2noc(-c3cccc(OC)c3OC)n2)cc1OC	i	.
83	Cc1noc(C)c1C(=O)N1CCC2(CCN(Cc3cc(C(F)(F)F)cc(C(F)(F)F)c3)CC2)CC1	i	.
84	O=C(CCCC(=O)Nc1cccnc1)Nc1cccnc1	i	.
85	O=C1C2C3C=CC(C3)C2C(=O)N1c1n[nH]c(-c2cccnc2)n1 (stereo not drawn)	i	>57
86	COc1ccc(-c2nc3n(n2)C(=O)CC(c2ccco2)S3)cc1 (stereo not drawn)	.	>25.6
87	O=C(O)CCC(=O)Nc1ccc(N2CCOCC2)cc1	i	>57
88	O=c1ccc(Oc2nc(N3CCCCC3)nc(N3CCCCC3)n2)n[nH]1	i	>57
89	Cc1occc1-c1nnc(SCC(=O)c2c[nH]c3ccccc23)n1C	i	.
90	Cc1cc(NC(=O)CSc2c(C)[nH]c3ccccc23)no1	i	.
91	COc1cccc(-c2cc(NCc3cnc(C)cn3)ncn2)c1	i	.
92	CC(C)Oc1ccc(C(=O)NCc2ccco2)cc1	i	>57
93	O=S(=O)(Nc1ncccn1)c1ccc(Nc2ncnc3ccccc23)cc1	i	?
94	Cc1nc2cncc(Br)c2n1C	i	.
95	Cc1ccc(N2C(=O)Nc3ccc(Br)cc3C2(O)C(=O)NCCCN(C)C)cc1C (stereo not drawn)	i	>57
96	O=C(NC1CCCCCCC1)C1CCN(S(=O)(=O)N2CCCC2)CC1	i	>57
97	Cc1c(Cl)cccc1N1C(=O)c2ccccc2C1=O	i	.
98	COC(=O)[C@H]1C[C@@H]1[C@H](NC(C)=O)c1ccccc1	i	.
99	CC1CN(C(=O)c2cn3ccccc3n2)CC(C)O1 (stereo not drawn)	i	.
100	CCn1nc(C(=O)OC2CCOC2=O)c2ccccc2c1=O (stereo not drawn)	i	>57

The closing two compounds of the part above lead into the next.
no.	SMILES	YjeE inh	PK Bst
99	CC1CN(C(=O)c2cn3ccccc3n2)CC(C)O1 (stereo not drawn)	i	.
100	CCn1nc(C(=O)OC2CCOC2=O)c2ccccc2c1=O (stereo not drawn)	i	>57
101	O=c1c(O)c(-c2ccc(O)cc2)oc2cc(O)ccc12	i	.
102	C=CCn1c(=N)n(CC(O)COc2ccccc2OC)c2ccccc21 (stereo not drawn)	i	.
103	CCOC(=O)c1sc2ncn(/N=C/N(C)C)c(=O)c2c1C	i	.
104	COc1cccc(Cn2c(=O)c(-c3ccc(F)cc3)nc3cnc(N4CCOCC4)nc32)c1	i	.
105	Cc1ccc(N(CC(N)=O)C2SC(=O)N(Cc3ccccc3)C2=O)cc1 (stereo not drawn)	i	>57
106	O=C(Cn1cnc2c(cnn2-c2ccc(F)cc2)c1=O)N1CCN(c2ccccc2F)CC1	i	>57
107	O=C(c1ccc2c(c1)OCO2)N1CCN=C1SCc1cccnc1	i	.
108	COC(=O)NCC12CC3CC(C1)CC(CNC(=O)OC)(C3)C2	.	>25.6
109	CCOc1ccc2nc(NC(NC(C)=O)(C(=O)OC)C(F)(F)F)sc2c1 (stereo not drawn)	.	>25.6
110	Cc1nccn1-c1cc(C(C)C)c(C#N)c2nc3ccccc3n12	.	>25.6

Of the compounds above, 3 contain a COOH group.
no.	SMILES	YjeE inh	PK Bst
10	O=C(O)CCCCCNS(=O)(=O)c1ccc(Cl)cc1	i	.
57	O=C(O)c1ccn(Cn2cnc3ccccc32)n1	i	>57
87	O=C(O)CCC(=O)Nc1ccc(N2CCOCC2)cc1	i	>57

Further results follow.
no.	SMILES	YjeE inh	PK Bst
111	CC(=O)Nc1ccc(NC2=CC(=O)CC(C)(C)C2)cc1	i	.
112	O=C(CCN1C(=O)c2ccccc2C1=O)Nc1ccc(S(=O)(=O)N2CCOCC2)cc1	i	>57
113	O=C(c1ccco1)N1CCN(S(=O)(=O)c2cccc3nsnc23)CC1	i	.
114	O=S(=O)(NCC1CCCO1)c1cccc2nsnc12 (stereo not drawn)	i	.
115	O=C(NCc1ccco1)c1cc2c(s1)CSC2	i	>57
116	CCCC(C(=O)NCC1CCCO1)N(Cc1ccco1)C(=O)CNS(=O)(=O)c1ccccc1 (stereo not drawn)	i	>57
117	COCCn1c(=O)c(CCc2ccccc2)nc2cnc(OC)nc21	i	.
118	Cc1csc(NC(=O)CSc2nnc(Cn3c(=O)sc4ccccc43)n2-c2ccccc2)n1	i	.
119	COc1ccc2cc(CCNC(=O)c3ccc4c(c3)OCO4)c(=O)[nH]c2c1	i	.

From PubChem BioAssay
